Env fusion inh = inhibitors of HIV Env-mediated cell fusion; HeLa-JRFL Env/CEM21 cell fusion, luciferase; inhibition, % at 12.3 µM; 360,000 compounds, 1.1% hits; AID 651610;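 active = mean replicate inhibition score of at least 50 and every replicate individually at or above 50; inconclusive = only one of the two criteria met; inactive = mean below 50 and not all replicates reaching 50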;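 also: 0% = plate neutral controls and 100% = maraviroc near 300 nM; one replicate is shown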
UUG fidelity = yeast start codon fidelity modulation | S. cerevisiae UUG-firefly luciferase reporter, luminescence/redox ratio | AID 602363 | 350,000 compounds, 0.13% hits | activity score, % at 18.7 µM;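 active = replicate mean at a twofold rise or more, about +100% in these data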;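 also: firefly luciferase made from a UUG start codon reports start codon fidelity; reporter light over untreated wells divided by growth signal over untreated wells; some hits fall short of that in this replicate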
PABP polyA inh = blocks human PABP binding to poly(A) RNA; fluorescence polarization; 290,000 compounds, 1% hits; inhibition, % at 35 µM;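 active = 50% or more with normal probe brightness, or confirmed in later tests; inconclusive = above 50% with abnormal brightness, or retests that disagree; inactive = below 50% or failed in later tests; about a fifth of its hits are not listed in these tables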;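 also: calls also rest on retests at 20 µM and on dose response follow-up; controls were probe without protein and protein plus probe with vehicle; some compounds called inactive have numbers as strong as hits; many hits fall short of the cut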
Target sequence (P11940 whole entry, looked up): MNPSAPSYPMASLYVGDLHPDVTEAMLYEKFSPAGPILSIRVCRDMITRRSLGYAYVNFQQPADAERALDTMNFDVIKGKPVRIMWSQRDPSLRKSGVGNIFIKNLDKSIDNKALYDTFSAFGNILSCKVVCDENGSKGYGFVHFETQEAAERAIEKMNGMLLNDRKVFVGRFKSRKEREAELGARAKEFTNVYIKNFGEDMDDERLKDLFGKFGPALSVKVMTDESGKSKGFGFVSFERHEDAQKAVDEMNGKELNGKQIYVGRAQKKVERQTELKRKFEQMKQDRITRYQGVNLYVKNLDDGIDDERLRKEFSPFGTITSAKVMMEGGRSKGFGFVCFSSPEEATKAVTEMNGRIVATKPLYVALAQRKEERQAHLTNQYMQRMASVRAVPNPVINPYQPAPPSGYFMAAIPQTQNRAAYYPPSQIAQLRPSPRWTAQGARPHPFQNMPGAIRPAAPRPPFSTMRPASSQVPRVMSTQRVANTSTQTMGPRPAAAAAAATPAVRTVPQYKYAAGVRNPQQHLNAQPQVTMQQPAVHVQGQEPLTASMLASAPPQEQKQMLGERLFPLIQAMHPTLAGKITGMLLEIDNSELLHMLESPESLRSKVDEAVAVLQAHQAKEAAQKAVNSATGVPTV
Rce1 inhib = blocks yeast Ras-converting enzyme. yeast membranes, quenched prenylated peptide cleavage fluorescence. Q03530. calls only. AID 2563. 290,000 compounds, 0.27% hits;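 active = fall in fluorescence gain of 50% or more versus controls, with final raw signal at or below 3038400; inconclusive = same 50% fall but final raw signal above 3038400; inactive = fall in fluorescence gain under 50%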;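 also: plate controls were neutral control wells for no effect and wells lacking membranes for full effect; tested at 10 µM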
CSC inhib = cancer stem cell inhibition. 300,000 compounds, 1.1% hits. inhibition, % at 7.5 µM. cancer stem cell-like cells viability, luminescence. AID 2717;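 active = mean at 75% or more and at least half the replicates too; inconclusive = mean and replicates disagree; tested in HMLE shEcad cells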;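 also: 0% = median of negative and 100% = median of positive control wells; the first replicate is given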
MT1-MMP act inh = MT1-MMP (human) activation inhibition. P50281. HT1080 RFP-PRO-GFP cells, GFP/RFP ratio fluorescence, overnight; percent of plate control window, DMSO zero. GFP/RFP ratio change, % at 20 µM. 360,000 compounds, 0.061% hits. AID 651647;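 active = GFP/RFP ratio change of at least 30% with cell ATP level not reduced by more than half and red fluorescence within 50% of control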; also: strong numbers were not always called active
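Material: RFP-PRO-GFP reporter HT1080 cells. Dosing: single-point 20 µM compound, 1% DMSO. Controls: DMSO and RFP-L50D-GFP cell wells. Timing: cells overnight before dosing, compound overnight, 37 °C, 5% CO2. Measure: GFP/RFP fluorescence ratio.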
eIF4H inh = inhibitors of RNA binding by human eIF4H; eIF4H fluorescence polarization binding assay; Q15056; inhibition, % at 35 µM; 290,000 compounds, 0.94% hits;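 active = 50% or more with normal probe brightness, or confirmed in later tests; inconclusive = above 50% with abnormal brightness, or retests that disagree; inactive = below 50% or failed in later tests; about a fifth of its hits are not listed in these tables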;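 also: calls also rest on retests at 20 µM and on dose response follow-up; 0% = protein and probe with vehicle and 100% = probe without protein; strong numbers were not always called active; many hits fall short of the cut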
eIF4H inh retest = recorded beside eIF4H inh, whose call it bears; inhibition, %; compound at 20 µM; confirmation average;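 mean of two retest wells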
PABP polyA inh retest = also measured in PABP polyA inh; calls as there; inhibition, %; compound at 20 µM; confirmation repeats;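 mean of two retest wells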
MT1-MMP act inh RFP = recorded beside MT1-MMP act inh, whose call it bears; RFP signal change, %; measured here: RFP expression control read;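 0 = vehicle wells; hits needed this value within 50% of zero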
* = called active by the depositor; i = inactive; ? = inconclusive; . = not tested or not shown.

SMILES | Env fusion inh | UUG fidelity | PABP polyA inh | Rce1 inhib | CSC inhib | MT1-MMP act inh | MT1-MMP act inh RFP | eIF4H inh | others
CC(=O)C1=C(S(=O)(=O)c2ccc(C)cc2)CS(=O)(=O)C1 | -41 | . | 3 | i | . | -6 | 3 | -2
CCCn1c(SCC(=O)Nc2ccc(C)c(S(=O)(=O)N3CCOCC3)c2)n[nH]c1=O | 22 | . | 2 | i | -8 | -7 | -1 | -4
Cc1cc(Nc2ccc(F)cc2C)n2nc(C)nc2n1 | -24 | -21 | -4 | i | 5 | 1 | -1 | 0
Cc1ccc(C)c(NC(=O)Cn2nc([N+](=O)[O-])c(Br)c2C)c1 | 4 | -8 | 2 | i | -2 | 5 | 5 | 7
CCOc1ccc2nc(NC(=O)CN3CCC(n4nnc5cc(C(F)(F)F)ccc54)CC3)sc2c1 | 50* | -21 | 7 | i | -16 | 2 | -13 | 5
COc1ccccc1NS(=O)(=O)c1ccc(OC)c(OC)c1 | -10 | 3 | 2 | i | . | -4 | 2 | 7
COc1ccccc1N1CCN(C/C=C/c2ccc(N(C)C)cc2)CC1 | . | . | 11 | i | 5 | . | . | 6
O=C(/C(=C/c1ccccc1)c1ccccc1)N1CCCCC1 | . | -1 | 1 | i | -1 | -5 | -7 | -7
C=CCn1c(SCC(=O)NC2(C)CCS(=O)(=O)C2)nc2ccccc21 (stereo not given) | 4 | . | . | . | -5 | 2 | 5 | .
CCN(C(=O)C(=O)c1c[nH]c2ccccc12)c1ccccc1 | 4 | 9 | 2 | i | . | -1 | -4 | -16
O=C(NCCc1ccccc1)C1CCC(=O)N1C1CCCC1 (stereo not given) | 0 | -19 | -7 | i | -6 | -1 | 1 | -8
CCOC(=O)c1c(C)[nH]c(C(=O)CN2C(=O)NC(CC)(c3ccccc3)C2=O)c1C (stereo not given) | . | 9 | -7 | i | . | 0 | -4 | 0
CC(C)[C@H](NS(=O)(=O)c1ccccc1)C(=O)OCC(=O)NC1CCCCC1 | . | 1 | . | . | -11 | -4 | -5 | .
CC(Sc1nnc(-c2cccnc2)n1N)C(=O)Nc1ccc2c(c1)OCCO2 (stereo not given) | -20 | -7 | . | . | . | -1 | 1 | .
Cc1cc(C)c(S(=O)(=O)N2CCOC2CNC(=O)C(=O)NCc2ccco2)c(C)c1 (stereo not given) | -34 | -2 | -1 | i | -2 | 0 | 2 | 11
N#CC1(c2ccccc2)CCC(=NO)CC1 (stereo not given) | . | -28 | 2 | i | -1 | 0 | 0 | -13
COc1cc2c(cc1/C=C1/NC(=O)N(CC(=O)Nc3ccccc3)C1=O)OCO2 | -14 | . | -12 | i | -8 | 2 | 1 | 3
O=C(CN1CCN(CC(=O)Nc2ccccc2Cl)CC1)NCC1(N2CCCCC2)CCCCC1 | 16 | 0 | . | . | . | -1 | -2 | .
COc1cccc(C2=NOC(C(=O)N3CCOCC3)C2)c1 (stereo not given) | -60 | -7 | 43 | i | 0 | 4 | 3 | 6
Cc1cccc(C)c1NC(=O)C1=C(O)c2sccc2N(C)S1(=O)=O | -2 | . | -14 | i | 0 | 2 | 3 | 3
COc1ccc(OC)c(N2C(=O)[C@@H]3C(c4ccccc4Cl)=NO[C@@H]3C2=O)c1 | . | -14 | 61* | i | -5 | -2 | -2 | 81* | eIF4H inh retest=89*;PABP polyA inh retest=103*
Cc1nc(C)c(C(=O)Nc2cccc(C)c2C)s1 | -9 | -17 | -10 | i | -13 | 0 | 1 | -4
O=S(=O)(c1ccccc1)c1nc(-c2ccc(F)cc2)oc1NCC1CCCO1 (stereo not given) | 14 | -6 | . | . | . | -4 | 0 | .
CN(C1CCCC1)C1CCN(C(=O)CNC(=O)/C=C/c2ccccc2)CC1 | . | . | -3 | i | . | 2 | 6 | 0
Cc1oc2c(c(=O)c1C)C(=O)CC(c1ccccc1)C2 (stereo not given) | . | -17 | 0 | i | -14 | 2 | 3 | -2
Later entries.
SMILES | Env fusion inh | UUG fidelity | PABP polyA inh | Rce1 inhib | CSC inhib | MT1-MMP act inh | MT1-MMP act inh RFP | eIF4H inh | others
Cc1c(NC(=O)c2cccc(S(=O)(=O)N3CCOCC3)c2)c(=O)n(-c2ccccc2)n1C | . | -20 | 7 | i | 15 | -1 | -3 | 2
CCOc1ccc(C(C(=O)NCC2CCCO2)N(Cc2cccs2)C(=O)c2snc(C(N)=O)c2N)cc1 (stereo not given) | 13 | -11 | 2 | . | 11 | -11 | 1 | 10
CC(=O)NCN1CCN(CNC(C)=O)CC1 | . | -3 | 3 | i | -1 | 7 | 2 | -9
CCOC(=O)[C@@H]1[C@H]2COc3cc(OC)ccc3[C@H]2N2C(=O)N(c3cccc(Cl)c3)C(=O)[C@@]12C | . | -21 | -4 | i | 12 | 5 | -5 | 0
CC[C@@H]1C(c2ccc(F)cc2)=NN(c2ccccc2)[C@H]1C(=O)N1CCOC1=O | -43 | -15 | . | . | . | -1 | 1 | .
O=C(CSc1ncccn1)Nc1ccc2c(c1)CCC2 | -2 | -10 | -12 | i | -4 | 5 | 3 | 0
CCOC(=O)c1ccc2c(c1)nc(C1CCN(S(=O)(=O)c3cccs3)CC1)n2CC | . | -19 | -4 | i | 5 | 0 | -14 | 10
O=C(CN1CCN(c2ccccc2O)CC1)NC(=O)NCc1ccccc1 | -9 | -2 | . | . | -7 | -1 | 2 | .
O=C(c1cccc(S(=O)(=O)N2CCOCC2)c1)N1CCCCCC1 | 12 | -11 | 6 | i | -3 | -1 | -3 | 0
CCC(N=c1cc(-c2ccc(OC)c(OC)c2)oc2ccc(C)cc12)C(=O)O (stereo not given) | . | . | -14 | i | -3 | 5 | 1 | 0
O=C(C1=C[C@@H](C2CC2)C[C@@H](OCc2ccc(CO)cc2)O1)N1CCN(Cc2ccc3c(c2)OCO3)CC1 | 6 | -15 | 6 | i | 0 | 11 | -4 | -4
COc1ccc(S(=O)(=O)n2cccc2)cc1OC | -1 | -9 | 48 | i | 6 | 0 | -1 | -3
CC(C)c1nc(SCC(=O)N2CCc3ccccc32)n[nH]1 | -9 | . | 85 | i | 5 | -2 | 4 | 5 | eIF4H inh retest=-3;PABP polyA inh retest=4
CCC(C)(C(=O)NC1CCCCC1)N(C(=O)Cc1cccs1)c1ccccc1 (stereo not given) | . | . | -1 | i | -6 | 10 | 2 | 4
COc1ccc(S(=O)(=O)Oc2cccc(C(=S)N3CCOCC3)c2)cc1 | 6 | -16 | 0 | . | -12 | -5 | -5 | -4
CC(C)(C)c1ccc(OCC(=O)NNC(=O)Nc2ccccc2)cc1 | 10 | -3 | -4 | i | -10 | 3 | -1 | 0
CN(C)c1ccc(-c2ccnc3c2CC(C)(C(=O)Nc2ccc(Cl)c(C(F)(F)F)c2)O3)cc1 (stereo not given) | 3 | -17 | . | . | . | -6 | 0 | .
Cn1nnnc1SCC(=O)N1CCN(c2ccc(Cl)cc2)CC1 | 14 | -18 | 10 | i | -3 | 1 | -8 | -4
Cc1nn(C)c(C)c1CN(C)S(=O)(=O)c1ccc(F)cc1 | . | -15 | 17 | i | 2 | 1 | -9 | -7
Cc1ccc(C)n1-c1ccc2c(c1)COC2=O | . | . | 0 | i | -8 | . | . | 5
Cc1cc(SCC(=O)N/N=C/c2ccc(O)c(O)c2)c(C)cc1Br | -29 | 69 | 2 | i | 38 | -26 | -13 | 5
CCOC(=O)/C(C#N)=C/c1ccc(OCC(=O)Nc2ccc(OC)cc2)c(OC)c1 | ? | -5 | 3 | i | 6 | -5 | -2 | 6
O=C(CCn1nc(-c2ccc(F)cc2)ccc1=O)NCc1ccccc1 | 21 | 5 | 5 | i | 3 | -2 | -2 | 0
NC(=O)COC(=O)CNC(=O)c1cc(Cl)cc([N+](=O)[O-])c1 | 13 | . | -8 | i | 4 | 2 | 3 | -7
CC(=O)c1sc(C(C)(C)C)cc1NC(=O)c1ccccc1C(=O)O | -2 | 8 | 13 | i | -5 | 9 | 5 | -9
Following part:
SMILES | Env fusion inh | UUG fidelity | PABP polyA inh | Rce1 inhib | CSC inhib | MT1-MMP act inh | MT1-MMP act inh RFP | eIF4H inh | others
O=C1c2cccc3cccc(c23)C(=O)N1CCN1CCN(CC(O)COc2ccc3ccccc3c2)CC1 (stereo not given) | -11 | -1 | 13 | i | 104* | 7 | -6 | -2
CC(C)CN(C(=O)COC(=O)c1cnc(Cl)c(Cl)c1)c1c(N)n(Cc2ccccc2)c(=O)[nH]c1=O | 1 | . | . | i | 7 | -3 | -5 | .
CCOC(=O)c1ccc(NS(C)(=O)=O)cc1 | . | -30 | 3 | i | -1 | 2 | 7 | -2
Cc1ccc(N2CC(C(=O)N3CCC(C(=O)NC(C)(C)C)CC3)CC2=O)cc1 (stereo not given) | -5 | -8 | -3 | i | -4 | 1 | -2 | -3
O=C(C[C@H]1C[C@H](C(=O)N2CCOCC2)[C@@]2(CCC3CCCC3)c3[nH]c4cc(-c5ccco5)ccc4c3CCN2C1=O)NCCCn1ccnc1 | 7 | -20 | . | . | . | 3 | -4 | .
CC(C)c1cc(=O)n2[nH]c(SCc3ccc(Cl)cc3)nc2n1 | -6 | -4 | -2 | i | 3 | 2 | 3 | 0
Cc1ccc(O)c(C(=O)c2cnc3c(c2)COc2ccc(C)cc2-3)c1 | . | -2 | -3 | i | 35 | -8 | -9 | -10
COc1cccc(NC(=O)CNC(C)CCC(C)C)c1 (stereo not given) | . | 0 | 16 | i | -8 | . | . | 4
COc1cc(OC)c(C=Cc2ccncn2)c(OC)c1 | 7 | -6 | . | . | . | -7 | 0 | .
NS(=O)(=O)c1ccc(CNC(=S)NCc2ccc(Cl)cc2)cc1 | 16 | -8 | -7 | i | -7 | 1 | -4 | -12
CN(C(=O)COc1ccc(-c2nnco2)cc1)C1CCS(=O)(=O)C1 (stereo not given) | 3 | -14 | . | i | 1 | -1 | -4 | .
O=C(COc1ccccc1)NNc1c2ccccc2nc2ccccc12 | . | 6 | 2 | i | -11 | 19 | -8 | -12
CNC(=O)c1nn(-c2ccccc2)ccc1=O | . | -14 | 0 | i | 8 | 3 | 5 | -4
Cc1ccc(-n2c(Cn3c(C)nc4ccccc43)n[nH]c2=S)cc1 | 4 | -8 | 1 | i | . | 1 | 3 | 6
CC1(C(=O)NS(=O)(=O)C2CC2)CCCN(C(=O)CSc2ccccc2)C1 (stereo not given) | 24 | -1 | . | . | . | 2 | 4 | .
CCN(C(=O)COC(=O)c1cccnc1SC)C1CCCCC1 | 6 | -3 | . | . | . | -3 | 0 | .
COC(=O)c1ccccc1NC(=O)c1ccc(-c2ccccc2F)o1 | -31 | -17 | -3 | i | 23 | -4 | -4 | -2
COC(=O)C(Cc1ccc(O)cc1)N1Cc2ccccc2C1=O (stereo not given) | -52 | -1 | -4 | i | -5 | -9 | -2 | -14
CCOC(=O)c1[nH]cnc1C(=O)NC1CCN(C(=O)OC(C)(C)C)CC1 | 11 | -15 | . | . | -29 | 2 | -4 | .
O/N=C/c1ccc(-c2cc(Cl)ccc2Cl)o1 | 11 | . | -6 | i | 19 | -11 | -5 | -3
Cc1cc(C)cc(OCC(=O)N(Cc2cccs2)C2CCS(=O)(=O)C2)c1 (stereo not given) | 18 | 0 | -6 | . | 3 | 4 | 5 | -4

This is a subset; rates above refer to the full screens.
